# High-throughput results from PubChem BioAssay.
# miR-21 reporter = miR-21 reporter, rising signal. HeLa miR-21 FLuc reporter, luciferase, 48 h. Potency, µM (doses to about 38.3 µM), for the others: top-dose reporter change, positive = more light. 340,000 tested, under 10 active. AID 2288; active = well fitted rising curve with a large enough effect; inconclusive = small, poorly fitted or top-dose-only effect; inactive = no such curve, though single readings can be large or run the other way;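 further: % of control where 0% means no effect; miR-21 action dims this reporter so a rising signal means less miR-21 action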
#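 HeLa cells endogenously expressing miR-21, stably carrying CMV-driven firefly luciferase with a downstream miR-21 binding site, 2000 cells/well. Titrations up to approximately 40 uM, 48 hours; luciferase luminescence read.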
# Rango-impB inh = Rango-importin beta binding inhibition. 340,000 compounds, 0.031% hits. Rango CFP/YFP FRET sensor + importin beta, 45 min. Potency, µM (titrated, usually from 92.2 µM), for the others: at the highest dose inhibition of complex formation; active = rising FRET ratio curve, often small or poorly fitted; inconclusive = mostly compound fluorescence or quenching in the first reads; inactive = flat curves in all reads;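 further: potency means the concentration at half of the fitted maximal effect; 0% = DMSO wells and 100% = buffer wells lacking importin beta; nearly all actives have a fitted effect of over 15% in size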
# Target sequence (Q14974 whole entry, looked up): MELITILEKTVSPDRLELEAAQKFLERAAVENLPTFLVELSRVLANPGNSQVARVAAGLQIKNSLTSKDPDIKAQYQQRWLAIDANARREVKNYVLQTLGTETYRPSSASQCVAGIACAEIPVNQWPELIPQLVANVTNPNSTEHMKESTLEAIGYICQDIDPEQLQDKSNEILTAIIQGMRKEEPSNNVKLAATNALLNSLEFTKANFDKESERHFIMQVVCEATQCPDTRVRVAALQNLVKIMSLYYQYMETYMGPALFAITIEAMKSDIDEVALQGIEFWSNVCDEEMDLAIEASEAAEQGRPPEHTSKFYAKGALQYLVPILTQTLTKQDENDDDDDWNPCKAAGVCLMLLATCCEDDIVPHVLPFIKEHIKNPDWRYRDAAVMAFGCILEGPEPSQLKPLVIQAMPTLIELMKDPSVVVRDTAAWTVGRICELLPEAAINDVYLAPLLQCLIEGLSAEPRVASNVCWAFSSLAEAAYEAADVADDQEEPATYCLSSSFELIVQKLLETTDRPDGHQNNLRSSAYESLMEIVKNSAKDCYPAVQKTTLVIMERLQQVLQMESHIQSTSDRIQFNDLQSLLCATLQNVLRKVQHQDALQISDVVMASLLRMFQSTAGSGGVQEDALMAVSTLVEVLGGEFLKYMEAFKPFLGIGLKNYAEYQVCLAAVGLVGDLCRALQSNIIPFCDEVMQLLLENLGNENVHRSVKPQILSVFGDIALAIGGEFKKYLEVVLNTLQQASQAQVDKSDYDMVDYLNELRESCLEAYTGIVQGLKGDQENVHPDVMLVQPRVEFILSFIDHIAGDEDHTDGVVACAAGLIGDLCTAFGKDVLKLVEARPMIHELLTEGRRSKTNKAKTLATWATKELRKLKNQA
#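 FRET biosensor (snurportin 1 IBB flanked by EYFP and cerulean), 50 nM, with compound 5 min, then 0.125 microM importin beta in PBS, 1 mM DTT, 0.02% Tween-20, 0.1% BSA. CFP/YFP ratio read after 45 min at room temperature; pre-read flags interference.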
# GLA inh pH 4.5 = inhibitors of human alpha-galactosidase A at pH 4.5 | AID 1467 | P06280 | 230,000 tested, under 10 active | purified enzyme, 4-MU-alpha-Gal fluorescence, pH 4.5 | activity change, negative = inhibition, % at 105 µM; inconclusive = small, poorly fitted or top-dose-only inhibition, or a rising curve; inactive = flat fitted curve, though single readings scatter; no compound was filed as active;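 further: 0% = full activity with enzyme and -100% = basal without enzyme; dose as in the result columns while the protocol names 77 µM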
# Rango release inh = inhibition of RanGTP-driven Rango-importin beta dissociation | 340,000 compounds, 0.071% hits | Biochemical FRET Rango-importin beta, RanGTP-induced dissociation | Potency, µM (highest dose often 46.1 µM), for inactives: at the top dose activity change, negative = inhibition | AID 540253; active means falling FRET ratio curve, often poorly fitted, with flat reads before Ran was added; inconclusive means other falling curves, or compound fluorescence or quenching; inactive means flat or rising ratio curve;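 further: potency means the concentration at half of the fitted maximal effect; % of control where 0% means no effect; nearly all actives have a fitted effect of over 45% in size; -100% = wells without RanGTP and RCC1; the record marks most hits as doubtful in a second field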
#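 Compounds sat 5 min at room temperature with 0.1 uM Rango biosensor plus 0.25 uM importin beta, then FRET pre-read. RanGTP-RCC1 (0.6 uM Ran, 2mM GTP, 0.2 uM RCC1) added for 45 min, and the CFP/YFP post-read measured blocked complex dissociation.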
# The depositor's hits bear a star; u = inconclusive; x = not tested or not shown; & = joins results of further samples; [ ] = dose if it differs, or a comment.
nr	SMILES	miR-21 reporter	Rango-impB inh	GLA inh pH 4.5	Rango release inh
1	COC(=O)c1cc(C(=O)OCC(=O)N2c3ccccc3NC(=O)C2(C)C)cc([N+](=O)[O-])c1	-3.4%	1.3%	2.1	-3.8%
2	COc1ccc(CCN2C(=O)CC(C(N)=O)SC2=Nc2ccccc2)cc1 (stereo unspecified)	0.8%	-1.1%	-27.2	0.3%
3	O=C(NNC(=S)NC(=O)c1ccc(F)cc1)c1ccncc1	x	-0.7%	x	0.2%
4	COCCn1c(SCC(=O)NCc2ccco2)nnc1C(C)C	-4.6%	-2.9%	6.4	0.4%
5	COc1ccccc1NC(=O)c1ccc(N2CC3CC(C2)c2cccc(=O)n2C3)c(NC(=O)c2cccnc2)c1 (stereo unspecified)	-10.7%	0.6%	x	u
6	COCCCn1c(=O)c2ccccc2n(CC(=O)NC2CCCC2)c1=O	-1.6%	0.1%	x	-2.5%
7	CN(C)c1ccc(/C=N/NC(=O)c2ccc(CN3C(=O)c4cccc5cccc3c45)cc2)cc1	-17.5%	x	5.7	x
8	COc1ccc(Cl)c(Cn2c(NCc3ccccn3)nc3c2c(=O)n(C)c(=O)n3C)c1	-2.3%	-1.2%	-1.7	-12.9%
9	C=CCn1c(SCC(=O)c2ccc(CNC(C)=O)o2)nc2ccccc2c1=O	-5.5%	-1.0%	3.3	-4.0%
10	COc1ccc(CN(C)C(=O)COc2cccc(-n3cnnn3)c2)cc1OC	x	0.7%	x	-6.0%
11	Cc1onc(-c2ccc(Cl)cc2)c1-c1ccnc(SCC(=O)Nc2cc(Cl)cc(Cl)c2)n1	7.8%	-0.2%	-14.0	1.3%
12	Nc1c(-c2n[nH]c(=S)n2-c2ccc(Cl)cc2Cl)cnn1-c1ccccc1	-2.2%	-2.0%	0.9	-1.5%
13	Cc1ccc(C(=O)COC(=O)CNC(=O)CN2C(=O)c3ccccc3C2=O)cc1	-6.7%	9.2%	6.4	20.7%
14	Cc1cccc(C(=O)OC2CCCN(C)C2)c1C (stereo unspecified)	-3.6%	1.5%	x	0.4%
15	Cc1nnsc1S(=O)c1ccc(Cl)c(Cl)c1 (stereo unspecified)	u	-0.2%	x	-2.1%
16	CC(=O)Nc1ccc(N=C(C2=C(O)c3ccccc3C2=O)c2ccccc2)cc1	-27.7%	0.3%	-5.7	17.4%
17	CCN(CC)C(=O)COc1ccc(S(=O)(=O)N2CCOCC2)cc1	0.9%	0.1%	1.0	-8.2%
18	Cc1cc(C(=O)N(C)Cc2ccc(Br)cc2)no1	-2.2%	-3.6%	2.3	0.2%
19	Cc1ccc(NC(=O)CN2CCC(NC(=O)C3CCCCC3)CC2)c(Br)c1	-4.1%	-1.3%	-0.6	16.5%
20	CNC(=O)/C(C#N)=C/c1ccc(OCCOc2ccccc2)cc1	-21.6%	-2.1%	x	1.3%
21	NC(=O)CSc1ncc(-c2ccc([N+](=O)[O-])cc2)[nH]1	-17.6%	-1.6%	-12.6	-6.3%
22	COc1ccc(-c2cc(C(=O)NCC3CCCO3)c3ccccc3n2)c(OC)c1 (stereo unspecified)	0.7%	4.6%	x	-13.9%
23	COc1ccc2[nH]c3c(c2c1)CCN1C(=O)C(CC(=O)NCc2ccc(OC)c(OC)c2)C[C@H](C(=O)N2CCOCC2)[C@@]31CCC1CCCC1 (stereo partly specified)	x	-1.5%	x	25.8%
24	O=C1C=CC2C3C(=O)N(c4ccccc4)C(=O)C3C1N2Cc1ccccc1 (stereo unspecified)	x	-1.4%	x	0.6%
25	NC1(C(=O)O)CC1	x	0.5%	-3.1&-11.6	0.6%
26	NNC(=O)c1cnn(-c2ccccc2)c1-n1cccc1	17.8%	-0.5%	4.7[21.1 µM]	-4.0%
27	COc1ccc(CCNC(=O)C2CC(c3cccc(F)c3)=NO2)cc1 (stereo unspecified)	-0.4%	0.2%	-3.8	7.0%
28	COC(=O)c1sccc1NC(=O)CSc1ccccc1NS(=O)(=O)c1ccccc1Cl	21.9%	-2.1%	-3.3	2.8%
29	Cc1ccc(-c2csc(/C(C#N)=C(\O)CN3CCN(C(=O)c4ccco4)CC3)n2)cc1	-13.9%	u	-1.4	-10.2%
30	Cc1noc(C)c1NC(=O)N(C)C[C@@H]1Oc2ccc(NS(=O)(=O)c3c(C)noc3C)cc2C(=O)N([C@H](C)CO)C[C@H]1C	x	4.0%	x	19.1%
31	CCC(C)Nc1nc(-c2cccc(OC)c2O)nc2ccccc12 (stereo unspecified)	-6.7%	-0.1%	u	-1.4%
32	CCOC(=O)c1c(NC(=O)COc2cccc3c2CCN(CC)C3=O)sc2c1CCC2	-0.6%	-0.2%	-6.5	1.9%
33	O=C(Nc1cccc([N+](=O)[O-])c1)c1ccc2snnc2c1	0.6%	5.8%	x	1.1%
34	O=C(CN1CCN(S(=O)(=O)c2ccc(Br)cc2)CC1)Nc1ccc2c(c1)OCO2	7.8%	-1.0%	-3.7	4.4%
35	O=C(CSc1nnc(-c2ccncc2)o1)NC1CCCCC1	-0.2%	-0.5%	-7.2	4.9%
36	COc1ccc(C(=O)Nc2ccccc2N2CCOCC2)cc1Br	-1.6%	0.5%	-24.7	1.3%
37	Cc1nc2sc3c(c2c(=O)n1NC(=O)CCBr)CCCC3	4.6%	3.3%	6.1	2.4%
38	Cc1ccc(Cc2cnc(NC(=O)C3=NCCN3)s2)cc1	-17.8%	x	-2.9	x
39	CC(C)(C)n1ncc2c(=O)n(Cc3cc(F)c(Cl)cc3Cl)cnc21	x	-0.9%	x	-1.7%
40	Cc1ccsc1C(=O)NC1CCCCC1C (stereo unspecified)	x	-2.4%	x	u
41	O=C(Nc1cccc(F)c1)c1ccc(S(=O)(=O)N2CCCCC2)cc1	-2.4%	-2.0%	x	-13.3%
42	Cc1cccc(C(=O)N2CCC(=O)N(C(COCc3cccc(Cl)c3)Cc3ccccc3)CC2)c1 (stereo unspecified)	4.6%	-4.4%	-13.4	-3.3%
43	CCC(Sc1nc2c(cnn2-c2ccccc2)c(=O)[nH]1)C(=O)OC (stereo unspecified)	-1.6%	-3.5%	-5.9	-1.3%
44	O=C(COC(=O)c1ccccc1Nc1ccccc1)NCc1ccco1	-3.7%	0.4%	-6.0	9.9%
45	O=C(c1cccc(Cl)c1)N1CCN(c2ccccn2)CC1	-7.8%	-0.7%	1.9	-7.3%
46	CCOc1ccccc1CN1CCNC(=O)C1CC(=O)N(C)Cc1nonc1C (stereo unspecified)	-0.9%	0.9%	x	11.8%
47	O=C(CSc1n[nH]c(-c2cccs2)n1)N1CCN(S(=O)(=O)c2ccc3ccccc3c2)CC1	10.9%	-1.4%	3.9	-14.9%
48	NC(=O)C1CCN(C(=O)C2CC(=O)N(Cc3ccccc3)C2)CC1 (stereo unspecified)	x	-2.7%	x	4.0%
49	CCOc1ccccc1C(=O)Oc1cc(C)[nH]c(=O)c1[N+](=O)[O-]	0.5%	0.2%	x	1.5%
50	CCc1ccccc1NS(=O)(=O)c1ccc2[nH]cc(C(=O)NCc3ccco3)c(=O)c2c1	-0.2%	-1.3%	9.0	0.3%
51	Cc1[nH]c2ccc(C(=O)N3CCCC3)cc2c1C	-22.7%	3.7%	x	-10.8%
52	C=CCn1c(SCC(=O)NCCOC)nc2scc(-c3ccco3)c2c1=O	-8.7%	u	0.2	-20.6%
53	CCOC(=O)Cn1ccc(NC(=O)COc2ccc(F)cc2F)n1	-1.5%	4.2%	x	-8.4%
54	Cc1nc(C)c(/C(O)=C/c2nc3ccccc3oc2=O)s1	-10.0%	u	0.3	-14.9%
55	COc1ccc(-c2nnc3ccc(SCC(=O)N4CCCCC4)nn23)cc1OC	-1.9%	1.2%	2.5	13.2%
56	c1ccc(CCNc2nc(-c3ccccn3)nc3ccccc23)cc1	u	4.3%	-0.2	20.4%
57	C=CCNC(=S)N1CCN(CCNC2=CC(=O)CC(C)(C)C2)CC1	-2.7%	-1.8%	5.4	-4.6%
58	CC(=O)c1ccc(C(=O)Nc2ccc(N3CCOCC3)cc2)cc1	-0.2%	-1.3%	1.1	-16.8%
59	O=CNn1cnc2c(oc3nc(-c4ccccc4)cc(-c4ccco4)c32)c1=O	4.4%	1.2%	-4.3	-8.8%
60	CC(C)=CCc1c([C@@H]2CCc3ccc(O)cc3O2)cc2c(c1O)OC(C)(C)C=C2	x	1.0%	x	1.3%

# Other structures follow:
nr	SMILES	miR-21 reporter	Rango-impB inh	GLA inh pH 4.5	Rango release inh
61	CSc1ccccc1NC(=O)COc1ccc(Cl)cc1Cl	-45.7%	1.9%	-1.3	0.3%
62	O=C1/C(=C/c2cccnc2)SC(=S)N1Nc1ccccc1	-1.7%	-2.7%	-3.7	6.7%
63	CC(C)(C)SCCNC(=O)COc1ccc(Cl)cc1	-21.4%	0.1%	7.9	-7.8%
64	Cn1c(CC(=O)Nc2ccccc2)cc2ccccc21	-28.0%	1.2%	x	6.7%
65	O=C(CCc1ccccc1)NC(=S)Nc1ccc(S(=O)(=O)N2CCOCC2)cc1	0.0%	2.7%	-8.5	-3.1%
66	CC1CCN(S(=O)(=O)c2ccc3c(c2)c(=O)c(C(=O)N2CCOCC2)cn3C)CC1	-1.8%	1.8%	x	16.3%
67	O=C(O)CCCn1cc(NC(=O)COc2ccccc2)cn1	-4.2%	2.1%	x	11.4%
68	CCOC(=O)c1sc(C(=O)OCC)c(OCCO)c1OCCO	0.0%	-4.4%	-3.8	-1.6%
69	CCN1CCN(C(=O)Nc2ccccc2OC)CC1	-6.6%	3.5%	-1.2	17.7%
70	O=C(C1Cc2ccccc2CN1S(=O)(=O)c1ccc(F)cc1)N1CCCCC1 (stereo unspecified)	-0.1%	-2.3%	-1.4	-2.3%
71	CCN(CC)S(=O)(=O)c1ccc(C)c(NC(=O)Cn2c(=O)cnc3ccccc32)c1	0.1%	-0.4%	6.1	-20.9%
72	NC(=O)C1CCN(C(=O)c2ccc(Cl)c(S(=O)(=O)N3CCCCCC3)c2)CC1	x	0.0%	x	-4.1%
73	CCCCn1c(N)c(N(CCOC)C(=O)c2ccc(-n3c(C)ccc3C)cc2)c(=O)[nH]c1=O	x	u	x	-23.7%
74	Cc1noc(/C=C/N(C)C)c1S(=O)(=O)N1CCCC(C(=O)Nc2ccc3c(c2)OCO3)C1 (stereo unspecified)	-2.9%	u	-2.7	17.6%
75	COc1cccc(/C=N/N2CCN(C)CC2)c1	-18.1%	-4.5%	-14.2	28.8%
76	O=C(COC(=O)CCc1ccccc1)Nc1ccc(F)cc1Cl	0.0%	0.0%	x	1.5%
77	CC(C)(C)NC(=O)C1CN(S(=O)(=O)c2ccccc2)CCN1S(=O)(=O)c1ccccc1 (stereo unspecified)	-2.4%	u	1.6	45.1%
78	O=S1(=O)c2ccc(Br)cc2N2CCC[C@@H]2CN1C1CC1	x	-2.5%	x	3.7%
79	CC(NS(=O)(=O)c1ccc(Br)cc1)C(c1cccs1)N1CCOCC1 (stereo unspecified)	-4.0%	-0.1%	-2.1	0.7%
80	COc1ccc(-n2c(Cc3ccccc3)nnc2SCc2ccc([N+](=O)[O-])cc2)cc1	-10.0%	-0.5%	-9.5	3.8%
81	O=C1C(c2ccncc2)N(CCC2=CCCCC2)C(=O)CN1C1CCCCC1 (stereo unspecified)	-3.7%	0.1%	-4.2	18.4%
82	CCOC(=O)C1=C(C)N(CCCCCC(=O)O)C(=O)NC1c1ccc([N+](=O)[O-])cc1 (stereo unspecified)	-0.4%	-0.3%	x	0.0%
83	CCN1CCN(CCCNC(=O)Cn2nc(C)n3nc(-c4ccccc4)cc3c2=O)CC1	0.0%	3.4%	x	-4.3%
84	O=C(Nc1ccc(Cl)cn1)c1ccc2nccnc2c1	-50.8%	1.9%	x	-3.5%
85	COCCNC(=O)COc1ncnc2scc(-c3ccc(F)cc3)c12	-3.7%	-0.6%	-16.1	0.6%
86	CCN(CC)C(=O)c1ccc(S(=O)(=O)N2CCC(c3nc4ccccc4s3)CC2)cc1	-7.0%	-0.3%	-0.5	31.8%

# This is a subset; rates above refer to the full screens.
